RmlCD inh 1536: M. tuberculosis RmlC/RmlD inhibition. P9WH09+P9WH11. RmlC+RmlD coupled enzyme assay, percent inhibition; primary screen in compound mixtures. inhibition, % at 3.6 µM. actives 0.03% (n = 160,000). AID 1533; in the data active = inhibition mostly above about 34%, no sharp cut-off; only retested compounds are shown here; also: some results filed as inactive read as strong as hits
Target sequence (P9WH09 whole entry, looked up): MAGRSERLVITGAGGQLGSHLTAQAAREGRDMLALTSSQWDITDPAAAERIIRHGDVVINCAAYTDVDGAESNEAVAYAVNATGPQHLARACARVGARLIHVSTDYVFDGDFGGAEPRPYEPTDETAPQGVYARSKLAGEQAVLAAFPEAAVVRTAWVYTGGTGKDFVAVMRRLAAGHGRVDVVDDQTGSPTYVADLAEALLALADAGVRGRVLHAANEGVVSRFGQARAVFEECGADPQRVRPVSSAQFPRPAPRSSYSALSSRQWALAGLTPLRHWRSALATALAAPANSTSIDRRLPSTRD
Target sequence (P9WH11 whole entry, looked up): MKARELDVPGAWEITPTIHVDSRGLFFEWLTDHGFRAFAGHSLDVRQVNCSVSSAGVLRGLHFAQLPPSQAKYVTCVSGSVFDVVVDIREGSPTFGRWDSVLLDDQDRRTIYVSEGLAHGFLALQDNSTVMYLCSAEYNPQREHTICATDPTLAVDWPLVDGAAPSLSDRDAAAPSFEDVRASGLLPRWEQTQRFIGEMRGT
RmlCD inh 1536 retest: also measured in RmlCD inh 1536; calls as there; inhibition, %; measured here: mean retest inhibition;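 single compounds in two wells; values far above 100% likely come from compound fluorescence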
Active calls of the source: *. These rows are one share of the data, so the mix of outcomes need not match the whole.

Every second line gives: RmlCD inh 1536 | RmlCD inh 1536 retest
- NNC(=O)CSc1ncc(-c2ccccc2)[nH]1
  53 | -14
- C=C(C)COc1ccc(-c2nc(N)ncc2-c2ccccc2OC)c(O)c1
  91 | -11
- O=C(NCC1CCCO1)c1ccc(Br)o1 (stereo not drawn)
  40 | -6
- CCN1CCN(c2nc(Nc3ccccc3)nc(N)c2[N+](=O)[O-])CC1
  72 | -11
- Cc1ccc2oc(=S)n(C)c2c1
  64 | 1
- COc1cccc(/C=C/c2ccncc2)c1OC
  82 | -12
- Cc1cc(Oc2ccc(OCC(N)=O)nn2)nc(Cl)n1
  48 | 7
- CCN1CCN(Cc2c(O)ccc3c(=O)c(-c4ccccc4OC)coc23)CC1
  57 | 22
- CC1SC(=Nc2ccccc2)N(S(=O)(=O)c2ccccc2)C1=O (stereo not drawn)
  54 | -6
- CCN(CC)/C(=N/S(=O)(=O)c1ccc(C)cc1)c1ccccc1
  61 | -2
- Cc1nc2ccccn2c1C(=O)N=Nc1c(O)n(CCC(C)C)c2ccccc12
  52 | 0
- Cc1ccc(S(=O)(=O)NC(=NCC(=O)O)c2ccccc2)cc1
  36 | -7
- COCCNC(=O)CCCn1c(=O)c2ccccc2n(Cc2cccc([N+](=O)[O-])c2)c1=O
  38 | -4
- CC1=CCC(C(=O)N/N=C/c2cccs2)C(c2ccc(F)cc2)C1 (stereo not drawn)
  60 | 6
- COCCN(C(=S)Nc1ccc(C)cc1C)C(C)c1ccco1 (stereo not drawn)
  45 | 7
- Cc1[nH]c2ccccc2c1SCC(=O)NNC(=O)Nc1ccc(OC(F)(F)F)cc1
  53 | 1
- O=C(c1cccs1)N1CCCN(c2ncnc3scc(-c4ccccc4)c23)CC1
  31 | 0
- O=C(COC(=O)c1cncc(Br)c1)NCc1ccc(Cl)cc1
  70 | 1
- Cc1ncc([N+](=O)[O-])n1Cc1cccc(F)c1
  39 | -4
- COc1ccc([N+](=O)[O-])cc1NC(=O)Cc1noc2ccc(C)cc12
  103 | 2
- Cc1sc(N/N=C/c2ccco2)nc1-c1ccccc1
  65 | -6
- CS(=O)(=O)N(CCc1ccccc1)CC(=O)NCc1ccccc1Cl
  88 | 3
- NS(=O)(=O)c1ccc(NC(=O)COC(=O)CCC2CCCC2)cc1
  35 | -3
- Cc1ccc(CNC(=O)COc2ccc3c(c2)CCC3)cc1
  30 | -28
- Cc1ccc(C(=O)CC(Nc2ccc(F)cc2)c2ccccc2)cc1 (stereo not drawn)
  83 | 7
- CCCc1c(C(=O)Nc2ccc(C(F)(F)F)cc2)cnn1-c1ccccc1
  43 | 5
- Cc1ccsc1/C=N/NC(=O)CN1CCN(Cc2ccccc2)CC1
  80 | -11
- Cc1ccc(-c2c(C(=O)N(C)Cc3ccccc3)oc(=O)c3ccccc23)cc1
  61 | -12
- c1ccc(-c2ccc(-c3n(-c4ccccn4)c4ccccc4[n+]3-c3ccccn3)cc2)cc1
  38 | -11
- CCc1cccc(CC)c1NC(=O)C(NS(=O)(=O)c1cccs1)c1ccccc1 (stereo not drawn)
  56 | -3
- Cc1ccc(C(=O)NCC(=O)OCC(=O)Nc2ccc(Cl)cc2C(F)(F)F)cc1C
  41 | -32
- COC(=O)c1ccccc1NC(=S)N(Cc1ccc2c(c1)OCO2)Cc1cc2cc(OC)ccc2[nH]c1=O
  33 | -4
- COc1ccc(CCNC(=O)C(C(=O)c2ccccc2)n2ccccc2=O)cc1OC (stereo not drawn)
  79 | 0
- O=[N+]([O-])c1ccc(N2CCN(C(=S)Nc3ccc(F)cc3)CC2)cc1
  34 | -3
- Cc1ccccc1Nc1nc(N)nc(CSc2ccccc2)n1
  98 | -4
- O=C1CC(SC2=NCCS2)C(=O)N1c1ccc(Br)cc1 (stereo not drawn)
  62 | -7
- COc1cc(/C=C(/NC(=O)c2ccccc2)C(=O)Nc2ccc(O)cc2)c([N+](=O)[O-])cc1OC
  32 | -1
- Cc1ccc(NC(=S)N2CCN(S(=O)(=O)c3c(F)cccc3F)CC2)cc1C
  66 | -7
- CN(C)S(=O)(=O)c1cccc(NC(=O)COc2cccc(C#N)c2)c1
  83 | -11
- COc1cc(NC(=O)/C=C/c2ccccc2)c(C(=O)O)cc1OC
  49 | 12
- O=[N+]([O-])c1ccc(NC(=S)NCCc2ccc(Cl)cc2)cc1
  36 | -5
- COc1ccccc1Nc1ccc(C(=O)NCc2cccs2)cn1
  33 | -4
- Cn1c(CC(=O)Nc2ccc(Cl)c(Cl)c2)nnc1SCC(=O)NCc1ccccc1
  64 | -16
- C=CCOc1c(Cl)cc(CNc2ccc3[nH]c(=O)[nH]c3c2)cc1OC
  35 | 13
- O=C(NC(=S)Nc1cccc(C(F)(F)F)c1)c1ccc2nonc2c1
  55 | -14
- Cn1ccnc1SCC(=O)Nc1ccc2c(c1)OCO2
  57 | 14
- CC(=O)c1cccc(NC(=S)NCCCCc2ccccc2)c1
  58 | -25
- Nc1nc(-c2ccc(Cl)cc2)c(N=Nc2ccc(S(=O)(=O)N3CCOCC3)cc2)s1
  32 | -5
- COc1ccc(N=C2SC(C(=O)N3CCN(c4ccc([N+](=O)[O-])cc4)CC3)CC(=O)N2C)cc1 (stereo not drawn)
  69 | -11
- Cn1c(N/N=C/c2c[nH]c3ccccc23)nc2ccccc21
  35 | -7
- CC(=O)Nc1ccc(C(=O)OCc2ccc(Cl)c(Cl)c2)cc1
  83 | 4
- CCSC1=NCCN1S(=O)(=O)c1ccc2ccccc2c1
  73 | 8
- Cc1ccc(C(=O)NCC(=O)OCC(=O)/C=C2\N(C)c3ccccc3C2(C)C)cc1C
  59 | 1
- O=C(O)/C=C/C(=O)N(CC1CCCO1)C1CC(=O)N(c2c(Cl)cccc2Cl)C1=O (stereo not drawn)
  55 | -6
- CCOC(=O)C1(Cc2cccc(F)c2)CCN(C(=O)C2CCC2)CC1
  65 | 5
- Cc1c(C=O)c2ccccc2n1CC(=O)O
  34 | -10
- N#C/C(=C\C=C\c1ccccc1[N+](=O)[O-])C(=O)NC1CCCCC1
  55 | 8
- CCC(c1ccccc1)c1nc(-c2cccnc2)no1 (stereo not drawn)
  44 | -5
- CC(C)=C(NC(=O)c1ccccc1)C(=O)N/N=C(\C)c1ccccc1O
  52* | 31*
- COC(=O)CN(c1ccc(OC)cc1OC)S(=O)(=O)c1ccccc1[N+](=O)[O-]
  40 | -5

Continued:
Every second line gives: RmlCD inh 1536 | RmlCD inh 1536 retest
- O=C1N=C(N2CCc3ccccc3C2)S/C1=C\c1cccc(O)c1
  55 | -5
- Cc1nc(N2CCC(C)CC2)c2c(C)c(C(=O)Nc3cccc(C(F)(F)F)c3)sc2n1
  36 | -12
- Cc1nnc(SCC(=O)NNC(=O)CC#N)[nH]c1=O
  39 | -13
- COC(=O)c1ccc(NN=Nc2ccc(C)cc2)cc1
  32 | 6
- COc1ccc(OC)c(-c2nc(CN(C)C(C)c3ccncn3)c(C)o2)c1 (stereo not drawn)
  41 | 12
- Cc1nnc2sc(SCC(=O)Nc3ccc(Br)cc3)nn2c1=O
  32 | -1
- CC(C)OCCCNC1=C(Cl)C(=O)c2ccccc2C1=O
  31 | -2
- O=C(CN1CCCc2ccccc21)N/N=C/c1c(O)ccc2ccccc12
  78 | -6
- Cc1cccc(N2CCN(C(=O)c3ccccc3NC(=O)C3CCCCC3C(=O)O)CC2)c1 (stereo not drawn)
  74 | 6
- NC(=S)N/N=C/c1ccc(-c2ccc(SC(F)F)cc2)o1
  49 | -4
- Cc1cc(C)nc(SCC(=O)Nc2nc(-c3ccccc3)c(-c3ccccc3)o2)n1
  31 | 6
- O=C(COc1ccc(Br)cc1)N/N=C1/SCC(=O)N1Cc1ccco1
  34 | -5
- COC(=O)c1cc(=O)c2cccc(OC)c2[nH]1
  62* | 107*
- O=C(COc1ccccc1-c1ccccc1)c1ccccc1
  74 | 7
- COc1cc(/C=N/NC(=O)C(N)=O)ccc1OC(=O)c1cccs1
  47 | 4
- C/C(CC(=O)NCc1ccccc1)=N\NC(N)=S
  44 | -3
- O=C(Nc1nc2ccccc2[nH]1)c1ccc(F)c(S(=O)(=O)N2CCOCC2)c1
  39 | -7
- COc1cccc(Cn2cnc3c([N+](=O)[O-])c(C)c(C)cc32)c1
  53 | -14
- O=C(CN1CCCC1)Nc1ccc(F)cc1
  32 | 6
- Cc1ccc2nc(Cl)c3nnnn3c2c1
  46 | 11

Four successive records out of the list so far, for reference:
Every second line gives: RmlCD inh 1536 | RmlCD inh 1536 retest
- O=C1N=C(N2CCc3ccccc3C2)S/C1=C\c1cccc(O)c1
  55 | -5
- Cc1nc(N2CCC(C)CC2)c2c(C)c(C(=O)Nc3cccc(C(F)(F)F)c3)sc2n1
  36 | -12
- Cc1nnc(SCC(=O)NNC(=O)CC#N)[nH]c1=O
  39 | -13
- COC(=O)c1ccc(NN=Nc2ccc(C)cc2)cc1
  32 | 6

Next part
Every second line gives: RmlCD inh 1536 | RmlCD inh 1536 retest
- CCOc1ccc(S(=O)(=O)N/N=C(\C)c2ccc(Cl)c(Cl)c2Cl)cc1
  109 | -22
- O=C(COC(=O)c1ccc(O)cc1)NCCCc1ccccc1
  63 | -2
- O=C(CSc1nc2ccccc2s1)NNC(=S)Nc1ccc(Cl)cc1
  89 | 10
- CCC(C)(C)NC(=O)C(c1ccccn1)N(C(=O)c1csnn1)C1CCCCC1 (stereo not drawn)
  34 | -7
- CCCN(CC1COc2ccccc2O1)C(=S)Nc1ccc(C)cc1 (stereo not drawn)
  78 | -8
- Cc1ccc(-c2cn3cccc(C)c3n2)cc1
  55 | -10
- Oc1ccccc1N=Cc1c(O)ccc2oc3c(c12)CCCC3
  43 | 15
- CCc1ccc(-c2cn3nc(-c4ccccc4)cnc3n2)cc1
  70* | 60*
- O=C(c1ccc(F)cc1)n1c(NCc2ccccc2)n[nH]c1=S
  57 | 29
- O=C(/C=C/c1ccco1)Nc1cccc(S(=O)(=O)N2CCOCC2)c1
  32 | -7
- COc1cc(CNc2nnnn2C)ccc1OCc1c(F)cccc1Cl
  65 | -14
- COc1ccccc1NC(=O)N1CCN(c2ccnc3cc(Cl)ccc23)CC1
  100 | -6
- CCOc1ccccc1N(CC(=O)NCc1ccccc1)C(=O)CCC(=O)Nc1cc(C)ccn1
  43 | 3
- CNC(=O)CC(C(=O)O)c1ccc(OCC(C)C)cc1 (stereo not drawn)
  55 | 10
- CC(C)(CN1CCc2ccccc2C1)NS(=O)(=O)c1ccc(Cl)cc1
  63 | -1
- O=C(Nc1ccccc1)C(c1ccccc1)C1CCCC1 (stereo not drawn)
  79 | 10
- O=C(CSc1nnc(Cc2ccccc2)o1)c1ccccc1
  33 | 8
- CCOC(=O)N1CCC(N2Cc3cccc(C(=O)NCc4ccc5c(c4)OCO5)c3C2=O)CC1
  65 | -7
- Cc1ccc(NC(=O)Cc2nnc(SCC(=O)c3ccc(Br)cc3)n2C)cc1Cl
  41 | -1
- C=CCNC(=O)CN1CCC(n2nnc3cc(C(F)(F)F)ccc32)CC1
  32 | -6
- O=S1(=O)CC/C(=N/Nc2ccccn2)c2cc(F)ccc21
  36 | -9
- CCc1cccc(CC)c1N1C(=O)c2cc(N3CCOCC3)c([N+](=O)[O-])cc2C1=O
  33 | -9
- Cc1cc(Nc2cc(Cl)cc(Cl)c2)nc(N)n1
  36 | -9
- COc1ccccc1NS(=O)(=O)c1cc(NC(=O)c2cccs2)ccc1N1CCCC1
  42 | 11
- O=C(CCC(=O)N1CCCC1)Nc1ccc([N+](=O)[O-])cc1
  32 | 0
- COCCn1c(=S)[nH]c2cc(C(=O)NCC3CCCO3)ccc2c1=O (stereo not drawn)
  33 | 4
- Cc1cc2nc3c(=O)n(CCc4ccccc4)c(=O)[nH]c3nc2cc1N
  40 | 12
- Cc1ccc(S(=O)(=O)N2CCCCC2)cc1C(=O)Nc1ccc(S(=O)(=O)Nc2ncccn2)cc1
  74 | 14
- O=C(NCc1ccc(F)cc1)C(=O)NCC1OCCN1S(=O)(=O)c1ccc2c(c1)OCCO2 (stereo not drawn)
  30 | -2
- O=C(NC(=S)Nc1ccc(CN2CCOCC2)cc1)c1ccccc1[N+](=O)[O-]
  99 | -3
- Cc1cc(C(=S)N2CCOCC2)c(C)n1-c1ccc(Cl)cc1
  32 | -22
- COCC(C)n1c(C)cc(C(=O)Cn2nc(C(=O)O)c3ccccc3c2=O)c1C (stereo not drawn)
  46 | -5
- CCC(=O)Nc1cccc(NC(=O)c2cc3ccccc3o2)c1
  100 | -16
- CC(=O)c1c(C)[nH]c(C(=O)CN2C(=O)NC(C)(c3ccc(C)cc3)C2=O)c1C (stereo not drawn)
  41 | -7
- O=C(NC(=S)Nc1ccc(S(=O)(=O)N2CCCC2)cc1)C1CC1
  59 | 3
- O=C(NCCc1ccccc1)C1CCC(Cn2c(=O)c3ccccc3n(Cc3cccnc3)c2=O)CC1 (stereo not drawn)
  38 | -26
- CCOC(=O)C(=CNc1cc(C)nn1-c1ccc(C)cc1)C(=O)OCC
  58 | 8
- CCCN(Cc1cc2ccccc2[nH]c1=O)C(=O)c1cccc([N+](=O)[O-])c1
  103 | 8
- CC(O)CC(C(=O)NNc1ccccc1)C(=O)NNc1ccccc1 (stereo not drawn)
  99 | -11
- CCN1/C(=C2\C(=O)N(C)C(=S)N2C)C=Cc2ccccc21
  35 | 8
- O=C(CSc1nnc(SCc2cccc3ccccc23)s1)c1ccc2c(c1)OCO2
  74 | 11
- CCOc1cc(C(=O)Nc2ccc(S(=O)(=O)NC3=NCCCCC3)cc2)cc(OCC)c1OCC
  35 | -28
- COc1ccc(C(=O)C2CCCN(C(=O)c3cccnc3SC)C2)c(C)c1 (stereo not drawn)
  57 | -6

Random excerpt: five records from the list.
Every second line gives: RmlCD inh 1536 | RmlCD inh 1536 retest
- O=C(NCc1ccc(F)cc1)C(=O)NCC1OCCN1S(=O)(=O)c1ccc2c(c1)OCCO2 (stereo not drawn)
  30 | -2
- CCOC(=O)C(=CNc1cc(C)nn1-c1ccc(C)cc1)C(=O)OCC
  58 | 8
- COc1ccccc1NS(=O)(=O)c1cc(NC(=O)c2cccs2)ccc1N1CCCC1
  42 | 11
- CC(=O)c1c(C)[nH]c(C(=O)CN2C(=O)NC(C)(c3ccc(C)cc3)C2=O)c1C (stereo not drawn)
  41 | -7
- CCOc1cc(C(=O)Nc2ccc(S(=O)(=O)NC3=NCCCCC3)cc2)cc(OCC)c1OCC
  35 | -28
